# Vaccinia inh: blocks a specific stage of Vaccinia orthopoxvirus infection | AID 1053133 | Vaccinia-infected cells, mCherry/Venus stage reporter fluorescence; active compounds read low; some inactives read as strong as hits | actives 0.01% (n = 89,000) | activity change (mCherry), % (test concentration not listed);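 active means mCherry past -33% and 40 or more points under the early reporter, replicates agreeing; inconclusive means past -33% without that gap or agreement; tested in A549 cells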;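 further: scaled between vehicle wells and reference inhibitor wells; 23 nL library stock went into each well; one replicate is shown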
# Vaccinia inh Venus: second read-out of Vaccinia inh, no call of its own (marks repeat the call); activity change (Venus), %; measured here: Venus reporter, other viral stage;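 negative = less Venus signal; first of two replicates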
# * = called active by the depositor; ? = inconclusive; nt = no result given. Some of the compounds tested. The share of hits here may be higher or lower than overall.
item	SMILES	Vaccinia inh	Vaccinia inh Venus
1	C[C@H](CO)N1C[C@H](C)[C@H](CN(C)S(C)(=O)=O)Oc2ncc(C#CC(C)(C)O)cc2C1=O	10.3	4.5
2	COc1ccc(S(=O)(=O)Nc2ccc3c(c2)C(=O)N([C@H](C)CO)C[C@H](C)[C@H](CN(C)Cc2ccncc2)O3)cc1	5.8	4.8
3	CC(C)CC#Cc1ccc2c(c1)O[C@H](CN(C)C(=O)c1ccccn1)[C@H](C)CN([C@@H](C)CO)S2(=O)=O	-15.6	-18.2
4	C[C@H](CO)N1C[C@H](C)[C@H](CN(C)C(=O)CCCN(C)C)OCCCC[C@H](C)Oc2ccc(NS(=O)(=O)c3ccc(Cl)cc3)cc2C1=O	12.3	-1.6
5	CO[C@H]1CN(C)C(=O)c2ccc(NC(=O)c3ccc4c(c3)OCO4)cc2OC[C@@H](C)NC[C@@H]1C	-2.9	6.0
6	Cc1ccc(S(=O)(=O)N(C)C[C@H]2Oc3ccc(NC(=O)Nc4ccc5c(c4)OCO5)cc3CC(=O)N([C@@H](C)CO)C[C@H]2C)cc1	-24.5	-17.9
7	CCCc1cn(CC[C@H]2CC[C@@H](NC(=O)C3CCC3)[C@H](CO)O2)nn1	-0.5	6.0
8	O=C(C[C@@H]1C=C[C@@H](NC(=O)C2CCC2)[C@H](CO)O1)Nc1nccs1	-7.6	-6.8
9	COc1ccc2c3c([nH]c2c1)[C@@H](CO)N(C(=O)CN1CCOCC1)CC31CCN(C(=O)NC(C)C)CC1	19.5	5.2
10	COc1ccc(CN(C)C[C@@H]2Oc3c(NS(=O)(=O)c4ccc(OC)cc4)cccc3C(=O)N([C@H](C)CO)C[C@@H]2C)cc1	7.8	12.4
11	CN(C)CC(=O)N1[C@@H](CO)[C@H](c2ccccc2)C12CN(C(=O)c1cccc(F)c1)C2	0.2	6.0
12	CNC[C@H]1Oc2c(NC(=O)C3CC3)cccc2C(=O)N([C@H](C)CO)C[C@@H]1C	9.7	9.4
13	COc1ccc(CN(C)C[C@@H]2Oc3ccc(NC(=O)NC4CCCCC4)cc3CC(=O)N([C@H](C)CO)C[C@@H]2C)cc1	-19.8	-15.3
14	O=C(C[C@@H]1CC[C@H]2[C@@H](COC[C@H](O)CN2C(=O)Nc2ccccc2)O1)NCc1ccncn1	3.8	10.2
15	CNC[C@@H]1OCCCC[C@@H](C)Oc2ccc(NC(=O)Nc3c(C)noc3C)cc2C(=O)N([C@@H](C)CO)C[C@H]1C	4.5	9.1
16	C[C@@H]1CN([C@H](C)CO)C(=O)c2cc(C#C[C@@H](C)O)cnc2O[C@H]1CN(C)C(=O)CN(C)C	21.7	12.7
17	CCNC(=O)C[C@H]1CC[C@H](NC(=O)C2CCOCC2)[C@H](CO)O1	2.2	-0.5
18	CC(C)NC(=O)N1[C@H](CN(C)C(=O)c2cccnc2)[C@@H](c2ccccc2)[C@@H]1CO	12.0	11.3
19	CCC(=O)Nc1ccc2c(c1)C(=O)N(C)C[C@H](OC)[C@@H](C)CN[C@H](C)CO2	-0.7	0.7
20	COc1cccc(NC(=O)N(C)C[C@H]2Oc3cc(C#Cc4ccncc4)ccc3S(=O)(=O)N([C@@H](C)CO)C[C@H]2C)c1	?	nt
21	COc1ccccc1-c1ccc([C@H]2[C@@H](C#N)N(C(=O)C3CC3)[C@@H]2CO)cc1	-1.7	-5.7
22	Cc1ccccc1S(=O)(=O)N1C[C@@H](O)COC[C@@H]2O[C@H](CC(=O)O)CC[C@H]21	6.0	1.0
23	C[C@@H]1CN([C@H](C)CO)C(=O)c2cc(NC(=O)C3CCCCC3)ccc2O[C@@H](C)CCCCO[C@@H]1CN(C)C(=O)CCCN(C)C	4.5	3.3
24	N#C[C@@H]1[C@H](c2ccc(-c3ccccc3F)cc2)[C@@H](CO)N1C(=O)C1CCC1	?	nt
25	C[C@H]1CN([C@@H](C)CO)C(=O)c2cc(NC(=O)C3CCCCC3)ccc2O[C@H]1CN(C)S(=O)(=O)c1cn(C)cn1	7.5	5.6
26	Cc1cccc(CN(C)C[C@@H]2OCc3cnnn3CCCC(=O)N([C@H](C)CO)C[C@H]2C)c1	33.1	14.6
27	CC(C)NC(=O)N(C)C[C@H]1Oc2ccc(NC(=O)CCC(F)(F)F)cc2CC(=O)N([C@H](C)CO)C[C@@H]1C	21.2	7.2
28	O=C(c1ccccc1F)N1C[C@H]2[C@@H](c3ccccc31)[C@@H](CO)N2C(=O)c1ccncc1	5.2	-1.7
29	CO[C@H]1CN(C)C(=O)c2cc(C#N)ccc2OC[C@H]2O[C@H](CC[C@@H]2OC)CCN(C)C(=O)[C@H]1C	15.9	6.8
30	CCCNC(=O)N1CCC2(CC1)CN(C(=O)CC)[C@H](CO)c1c2c2ccc(OC)cc2n1C	12.0	8.8
31	C[C@H]1CCCCO[C@H](CN(C)Cc2ccc(C(F)(F)F)cc2)[C@@H](C)CN([C@@H](C)CO)C(=O)c2cc(NC(=O)CCC(F)(F)F)ccc2O1	?	nt
32	O=C(c1ccccc1)N1CC(=O)N2[C@H](CO)[C@@H](c3ccc(C#CCC4CCCC4)cc3)[C@@H]2C1	-0.3	2.1

# Results in sequence from the entries so far.
# Nos. 25–32 in Vaccinia inh: 7.5, 33.1, 21.2, 5.2, 15.9, 12.0, ?, -0.3
# Nos. 25–32 in Vaccinia inh Venus: 5.6, 14.6, 7.2, -1.7, 6.8, 8.8, nt, 2.1

# Next part
item	SMILES	Vaccinia inh	Vaccinia inh Venus
33	C[C@@H]1CN([C@@H](C)CO)S(=O)(=O)c2ccc(C#CC3CCCC3)cc2O[C@@H]1CN(C)Cc1cccnc1	?	nt
34	COc1ccc(S(=O)(=O)Nc2ccc3c(c2)C(=O)N([C@H](C)CO)C[C@@H](C)[C@H](CN(C)C(=O)Cc2ccccc2)OCCCC[C@H](C)O3)cc1	-25.2	-28.1
35	O=C(Nc1ccccc1F)N1CC(=O)N2[C@H](CO)[C@@H](c3ccc(C#CC4CC4)cc3)[C@H]2C1	-25.5	-22.7
36	O=C(C[C@H]1C=C[C@@H](NC(=O)Nc2ccccc2F)[C@H](CO)O1)NCc1ccc(Cl)cc1	6.3	15.8
37	CS(=O)(=O)Nc1ccc2c(c1)[C@H]1C[C@H](CC(=O)N3CCOCC3)O[C@H](CO)[C@H]1O2	14.4	16.1
38	O=C(C[C@@H]1CC[C@@H]2[C@H](COC[C@@H](O)CN2S(=O)(=O)c2ccc(F)cc2)O1)NCCN1CCCCC1	-8.7	-8.5
39	CCCN1[C@@H]2c3ccc(-c4cccc(F)c4)c(=O)n3C[C@H]1[C@H](CO)[C@H]2C(=O)N(C)C	-0.6	-3.1
40	COc1ccccc1C(=O)N1C[C@@H]2[C@H](c3ccccc31)[C@@H](CO)N2C(=O)Cc1ccccc1	5.7	10.5
41	CCCC#Cc1ccc2c(c1)O[C@H](CN(C)C(=O)Nc1ccccc1F)[C@@H](C)CN([C@@H](C)CO)S2(=O)=O	?	nt
42	C[C@H](CO)N1C[C@H](C)[C@H](CN(C)S(=O)(=O)c2ccccc2)Oc2ccc(NC(=O)CCN3CCOCC3)cc2C1=O	-8.2	3.0
43	Cn1cnc(S(=O)(=O)N2CCCCN3[C@H](CO)[C@@H](c4ccc(C5=CCCC5)cc4)[C@H]3C2)c1	14.0	-6.9
44	Cc1noc(C)c1NC(=O)Nc1ccc2c(c1)C(=O)N([C@@H](C)CO)C[C@H](C)[C@H](CN(C)Cc1ccncc1)OCCCC[C@@H](C)O2	-1.1	-4.4
45	O=C(C[C@H]1C[C@@H]2c3cc(NC(=O)NC4CCCC4)ccc3O[C@@H]2[C@H](CO)O1)NCc1ccc(Cl)cc1	6.3	10.7
46	COc1ccccc1-c1cnc2c(c1)C(=O)N([C@@H](C)CO)C[C@H](C)[C@H](CN(C)Cc1cccc(F)c1)O2	-5.5	-2.9
47	CNC[C@@H]1OCCCC[C@H](C)Oc2ccc(NS(=O)(=O)c3cccs3)cc2C(=O)N([C@H](C)CO)C[C@@H]1C	29.3	16.6
48	C[C@H](CO)N1C[C@H](C)[C@H](CN(C)S(=O)(=O)c2ccccc2)Oc2ccc(NC(=O)C3CC3)cc2CC1=O	-0.2	6.4

# In a second layout: three of the compounds above
24. N#C[C@@H]1[C@H](c2ccc(-c3ccccc3F)cc2)[C@@H](CO)N1C(=O)C1CCC1
  Vaccinia inh: ?
  Vaccinia inh Venus: nt

25. C[C@H]1CN([C@@H](C)CO)C(=O)c2cc(NC(=O)C3CCCCC3)ccc2O[C@H]1CN(C)S(=O)(=O)c1cn(C)cn1
  Vaccinia inh: 7.5
  Vaccinia inh Venus: 5.6

26. Cc1cccc(CN(C)C[C@@H]2OCc3cnnn3CCCC(=O)N([C@H](C)CO)C[C@H]2C)c1
  Vaccinia inh: 33.1
  Vaccinia inh Venus: 14.6

# Other entries follow.
item	SMILES	Vaccinia inh	Vaccinia inh Venus
49	O=C(c1cnccn1)N1CC[C@@H]2[C@H](CO)Nc3ccc(C#Cc4cccnc4)cc3[C@@H]21	-3.0	-0.7
50	C[C@@H](NC(=O)C[C@@H]1CC[C@H](NC(=O)C2CC2)[C@@H](CO)O1)c1ccccc1	10.1	8.9
51	COc1ccc(CN(C)C[C@@H]2Oc3c(NC(=O)Nc4ccccc4)cccc3C(=O)N([C@@H](C)CO)C[C@H]2C)cc1	-13.2	-8.0
52	CNC[C@@H]1OCCCC[C@@H](C)Oc2ccc(NC(=O)CCC(F)(F)F)cc2C(=O)N([C@@H](C)CO)C[C@@H]1C	4.1	9.4
53	C[C@@H]1CN([C@@H](C)CO)C(=O)c2cc(NC(=O)Nc3ccc4c(c3)OCO4)ccc2O[C@H]1CN(C)C(=O)Nc1ccc2c(c1)OCO2	12.0	7.9
54	O=C(C[C@@H]1CC[C@H]2[C@@H](COC[C@H](O)CN2CCc2ccccc2)O1)NCc1ccc(F)cc1	-7.6	-4.1
55	COc1ccc(NC(=O)N(C)C[C@@H]2OCc3ccccc3-c3c(n(C)c4ccccc34)C(=O)N([C@@H](C)CO)C[C@@H]2C)c(OC)c1	?	nt
56	COCC(=O)Nc1ccc2c(c1)C(=O)N(C)C[C@@H](OC)[C@H](C)CN(Cc1ccccc1)[C@H](C)CO2	-0.6	-0.5
57	CCC(=O)N1[C@H](CN(CC)C(=O)c2ccccc2)[C@@H](c2ccccc2)[C@@H]1CO	1.2	4.5
58	COc1cccc(NC(=O)N[C@H]2C=C[C@H](CC(=O)N3CCCCC3)O[C@H]2CO)c1	14.1	11.4
59	CC=Cc1ccc2n(c1=O)C[C@@H]1[C@@H](CO)[C@H](C(=O)OC)[C@H]2N1C(=O)CC (mixture of isomers)	21.5	13.1
60	C[C@H]1CN([C@@H](C)CO)C(=O)c2cc(C#CC3CCCCC3)cnc2O[C@@H]1CN(C)S(=O)(=O)c1ccc(F)cc1	-5.4	4.2
61	C/C=C/c1cnc2c(c1)C(=O)N([C@H](C)CO)C[C@@H](C)[C@H](CN(C)Cc1ccccc1)O2	9.1	2.3
62	C[C@H]1CN([C@@H](C)CO)C(=O)c2cc(NC(=O)CCC(F)(F)F)ccc2O[C@@H]1CN(C)S(=O)(=O)c1cn(C)cn1	15.2	5.5
63	O=S(=O)(NC[C@@H]1CC[C@H]2NC[C@H]2O1)c1ccccc1F	8.7	6.6
64	O=C([C@@H]1[C@@H](CO)[C@@H]2Cn3c(cccc3=O)[C@@H]2N1CC1CCCC1)N1CCOCC1	-11.2	32.3
65	C[C@@H]1CCCCO[C@@H](CN(C)Cc2ccc(C(F)(F)F)cc2)[C@@H](C)CN([C@@H](C)CO)C(=O)c2cc(NS(=O)(=O)c3cn(C)cn3)ccc2O1	-19.0	-16.2
66	COc1ccc(NC(=O)N2CC3(C2)CN(C(=O)CN2CCOCC2)[C@@H](CO)c2[nH]c4cc(OC)ccc4c23)cc1	11.7	5.7
67	Cc1noc(C)c1NC(=O)N(C)C[C@H]1OCCCC[C@H](C)Oc2ccc(N(C)C)cc2C(=O)N([C@H](C)CO)C[C@@H]1C	-6.7	3.7
68	COc1cccc(S(=O)(=O)N(C)C[C@@H]2Oc3ncc(-c4cccc(F)c4)cc3C(=O)N([C@H](C)CO)C[C@@H]2C)c1	-20.7	-8.5
69	CCCNC(=O)N(C)C[C@H]1Oc2ncc(C#CCC(C)C)cc2C(=O)N([C@H](C)CO)C[C@@H]1C	13.5	-0.3
70	Cc1noc(C)c1NC(=O)Nc1ccc2c(c1)C(=O)N([C@@H](C)CO)C[C@H](C)[C@@H](CN(C)S(=O)(=O)c1ccc(Cl)cc1)O2	3.7	10.1
71	COc1ccc(NC(=O)Nc2ccc3c(c2)C(=O)N([C@H](C)CO)C[C@H](C)[C@@H](CN(C)S(=O)(=O)c2ccc(F)cc2)OCCCC[C@@H](C)O3)cc1	13.4	11.4
72	C[C@@H]1CCCCO[C@@H](CN(C)S(=O)(=O)c2cn(C)cn2)[C@@H](C)CN([C@@H](C)CO)C(=O)c2cc(NS(C)(=O)=O)ccc2O1	13.3	10.8
73	O=C(CN1CCOCC1)N1CCCCN2[C@@H](CO)[C@H](c3ccc(-c4ccccc4F)cc3)[C@@H]2C1	15.2	5.7
74	COC(=O)[C@@H]1[C@@H](CO)[C@@H]2Cn3c(ccc(C4=CCCC4)c3=O)[C@H]1N2C(=O)CC1CC1	8.1	9.3
75	COCC(=O)N1C[C@H](C)[C@H](OC)CN(C)C(=O)c2cc(NC(=O)c3ccc(F)cc3)ccc2OC[C@@H]1C	4.0	3.6
76	CN1C(=O)c2cc(NC(=O)C3CCCC3)ccc2OC[C@@H]2O[C@H](CC(=O)NCC(F)(F)F)CC[C@@H]21	5.0	2.4
77	C[C@@H]1CN([C@H](C)CO)C(=O)c2cc(NS(=O)(=O)c3ccc(Cl)cc3)ccc2O[C@@H](C)CCCCO[C@@H]1CN(C)Cc1ccncc1	?	nt
78	CCCN1C[C@H](C)[C@H](OC)CN(C)C(=O)c2ccc(NC(=O)c3cccc(F)c3)cc2OC[C@H]1C	-7.4	-3.8
79	Cc1ccc(S(=O)(=O)NCC[C@@H]2CC[C@@H](NC(=O)c3cccnc3)[C@@H](CO)O2)cc1	11.0	7.6
80	COCC#Cc1ccc2c(c1)O[C@H](CN(C)Cc1ccncc1)[C@@H](C)CN([C@H](C)CO)S2(=O)=O	-2.8	-2.9
